VDR inhibitor = inhibitors of human vitamin D receptor. Potency, µM, without a hit: max response, negative = inhibition, hits mostly inhibitors. VDR-SRC2-3 peptide fluorescence polarization, 2 h. 400,000 compounds, 0.93% hits; active = well fitted inhibition curve with a large enough effect; inconclusive = small, poorly fitted or top-dose-only effect, or another doubt; inactive = no such curve, though single readings can be large or run the other way; note: series mostly up to about 120 µM
Target sequence (P11473 whole entry, looked up): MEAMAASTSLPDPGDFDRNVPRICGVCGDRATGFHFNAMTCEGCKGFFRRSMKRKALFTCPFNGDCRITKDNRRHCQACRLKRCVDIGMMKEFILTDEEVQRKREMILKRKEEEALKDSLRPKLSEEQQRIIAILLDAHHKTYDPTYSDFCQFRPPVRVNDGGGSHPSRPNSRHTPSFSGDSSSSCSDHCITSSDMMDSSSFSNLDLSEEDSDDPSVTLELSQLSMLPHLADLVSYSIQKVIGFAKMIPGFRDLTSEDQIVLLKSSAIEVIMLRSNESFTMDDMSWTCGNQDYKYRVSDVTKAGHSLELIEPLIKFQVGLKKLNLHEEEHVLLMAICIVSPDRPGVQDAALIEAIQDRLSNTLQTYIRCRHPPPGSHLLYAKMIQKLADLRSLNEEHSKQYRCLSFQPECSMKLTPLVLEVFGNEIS
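Measured by FP: displacement of SRC2-3 coactivator peptide from VDR by library compounds, following a two-hour ambient incubation.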
Starred values were filed as active, the others as inactive; ? = inconclusive; & = joins results of further samples. % is set by controls: 0 for no effect and ±100 for the full control effect; potency is the fitted concentration of half-maximal effect. The list is partial (hit frequency here may not be typical).

Sample of the layout:
SMILES	VDR inhibitor
CCN(CC)C(=O)C1CCCN(Cc2cccc(Oc3ccccc3)c2)C1 (stereo not given)	-13%
COc1ccc2c(c1OC)C(=O)N1C2SC[C@H]1C(=O)NCCC(C)C (stereo not given in full)	3%

This part in full, previewed entries included:
SMILES	VDR inhibitor
CCN(CC)C(=O)C1CCCN(Cc2cccc(Oc3ccccc3)c2)C1 (stereo not given)	-13%
COc1ccc2c(c1OC)C(=O)N1C2SC[C@H]1C(=O)NCCC(C)C (stereo not given in full)	3%
NC(=O)c1ccccc1NC(=O)CSC1=NCCS1	6%
Cc1[nH]nc(SCC(=O)NCCc2ccccc2)c1[N+](=O)[O-]	-9%
O=C(NCc1ccco1)C(c1ccccc1)N(C(=O)Cc1cccs1)c1ccccc1F (stereo not given)	-2%
ON=C1c2ccccc2-c2ccc(Br)cc21	-27%
Cc1cc(NC(=O)c2ccc3c(c2)C(=O)N(C)C3=O)no1	7%
O=C1CN(C(=O)Cn2ncc(Cl)c(Cl)c2=O)c2ccccc2N1	-11%
CC(C)CNc1nc(N)c([N+](=O)[O-])c(NCc2ccccc2)n1	-4%
CN1CCc2c(n(CC(O)CNCc3ccccc3)c3ccccc23)C1=O (stereo not given)	3%
O=C(NCc1ccccc1F)C1CCC(=O)N(Cc2ccc(Cl)cc2)C1 (stereo not given)	2%
Nn1c(SCc2ccc(Br)cc2)nnc1-c1cccnc1	9%
O=C(CCc1nc2ccccc2c(=O)[nH]1)OCC(=O)N1CCN(S(=O)(=O)c2ccccc2)CC1	-11%
O=[N+]([O-])c1ccc(Cl)c(S(=O)(=O)/N=C(/Nc2cccnc2)c2ccccc2)c1	-18%
CCOC(=O)c1c(C)sc(-c2c(-c3ccc4c(c3)OCCO4)[nH]c3c2c(=O)[nH]c(=O)n3C)c1O	-3%
Cc1cc(OCC(=O)Nc2cnn(CCCC(=O)O)c2)ccc1[N+](=O)[O-]	15%
Cc1ccccc1C(=O)Nc1cccc(NC(=O)Cn2cnc3c(=O)n(C)c(=O)n(C)c32)c1	-5%
CSc1ccccc1NC(=O)Cc1ccccc1[N+](=O)[O-]	7%
O=C(CN(c1ccccc1)S(=O)(=O)c1ccc(F)cc1)NCc1cccs1	-18%
Cc1ccnc(NC(=O)CCC(=O)N(CC(=O)NC2CCCCC2)CC2CCCO2)c1 (stereo not given)	5%
CC(C)(C)n1nc2c(c1NC(=O)c1ccc([N+](=O)[O-])cc1)CS(=O)(=O)C2	1%
CN(CC(=O)NC1CCCCC1)S(=O)(=O)c1ccc(Br)s1	-7%
Cc1cc(C)n(-c2cc(N3CCN(C(=O)c4ccccc4C)CC3)ccc2[N+](=O)[O-])n1	-4%
CCOc1cc(N2CCOCC2)c(OCC)cc1NCC(=O)N1CCN(Cc2ccccc2)CC1	12%
CCOC(=O)N1CCN(c2ncc3c(n2)CC(c2ccc(Cl)cc2)CC3=O)CC1 (stereo not given)	1%
Cc1ccc2c(NC(=O)c3ccc(Br)o3)cccc2n1	-12%
COc1cccc2c1CCC1=CC(=O)CCC12C (stereo not given)	-10%
CC12CCC(=O)N1C(C(=O)NCCc1ccccc1)CS2 (stereo not given)	-14%
O=C(NC1CCc2ccccc21)c1cc(COc2c(F)cccc2F)on1 (stereo not given)	-13%
COc1ccc2oc(C(=O)OCC(=O)NC(=O)c3ccccc3)c(C)c2c1	-25%
O=C(NC1CC1)c1ccc(Cn2c(SCc3ccccc3F)nc3cccnc32)cc1	2%
CC(C)CN(C(=O)COC(=O)c1ccccn1)c1c(N)n(Cc2ccccc2)c(=O)[nH]c1=O	-8%
CC(C(=O)N1CCOCC1)(c1ccccc1)c1ccccc1	-24%
Cc1c(NS(=O)(=O)c2cc(C(=O)NCc3cccnc3)ccc2Cl)c(=O)n(-c2ccccc2)n1C	9%
O=C(NCc1ccco1)c1cc2cc(Br)ccc2o1	89µM*
CCCc1ccc2oc(C(=O)N3CCC(C(N)=O)(N4CCCCC4)CC3)c(C)c2c1	12%
COc1ccc2nc(NC(=O)C3CCCO3)sc2c1 (stereo not given)	-7%
CCC(CC)c1nc(C#N)c(NC(C)c2ccccc2)o1 (stereo not given)	-7%
Cc1ccc(Cl)cc1NC(=O)CCC(=O)O	-10%
CCCCOC(=O)Nc1nnc(-c2ccccc2OC)s1	5%
O=C(N/N=C/c1ccc(OC(=O)c2ccccc2)cc1)c1ccc(CN2CCOCC2)cc1	-11%
O=C(CN1CCC(C(O)(c2ccccc2)c2ccccc2)CC1)Nc1ccccc1	6%
Cc1cccc(C)c1-n1c(C)nn(CCOc2ccccc2)c1=O	1%
COc1ccc(C2CC(c3ccc(Br)cc3)=NN2C(=O)CN2CCCC2)cc1 (stereo not given)	10%
c1ccc(Cc2nnc3sc(-c4ccco4)nn23)cc1	?
O=C(CN1C(=O)COc2ccccc21)NCCN1CCCC1	-1%
COc1cccc(NC(=O)CSc2nccn2Cc2ccc3c(c2)OCO3)c1	-8%
CC(=O)c1ccc(-c2ccc(C(=O)N(C)Cc3nc4ccccc4c(=O)[nH]3)o2)cc1	-1%
COc1ccc(N2C(=O)N3[C@H](c4ccc(Cl)cc4)[C@@H]4C(=O)N(C5CCCCC5)C(=O)[C@@H]4[C@]3(Cc3ccc(Cl)cc3)C2=O)cc1	-7%
O=C(NCc1ccccc1Cl)NCc1ccccc1Cl	10%
Cc1ccc(Cn2ccnc2SCC(=O)NCc2ccccc2Cl)cc1	6%
COc1ccc(C2=CC(=O)C[C@H](c3ccc(F)cc3)C2)c(OC)c1	-1%
COc1ccc(CNC(=O)COC(=O)C(CCSC)NC(=O)c2ccco2)cc1OC (stereo not given)	-14%
O=C(CNC(=O)C(c1ccccc1)c1ccccc1)N/N=C/c1ccc(O)c([N+](=O)[O-])c1	2%
CCOc1cc(S(=O)(=O)NCc2cccnc2)c(C)cc1C	5%
CCOc1ccc(OCC)c(NC(=O)C2CCCN(S(=O)(=O)c3ccc(C)cc3)C2)c1 (stereo not given)	0%&-2%
CCn1c2ccccc2c2cc(/C=N/n3c(C)nnc3C)ccc21	1%
CCOC(=O)NC(=O)/C(C=Nc1ccc(Cl)c(Cl)c1Cl)=C(\C)O	-19%
CCOC(=O)N1CCN(CC(=O)Nc2cc(OCC)ccc2OCC)CC1	11%
COc1ccc(/C=N/N2CCN(c3ccccc3OC)CC2)cc1Br	-3%

(further entries)
SMILES	VDR inhibitor
Fc1ccc(C2=NNC(=NCc3ccccc3)SC2)cc1F	-7%
Cc1c(CCC(=O)N2CCCCC2)c(=O)oc2cc3occ(C(C)(C)C)c3cc12	1%
C=CC[C@@H](CC(=O)NCCO)C(=O)N[C@@H](COC(=O)[C@@H](CC=C)CC(=O)OC(C)(C)C)Cc1ccccc1	-12%
O=C(NC1CCCCC1)C(c1ccccn1)N(C(=O)c1csnn1)C1CCCCC1 (stereo not given)	16%
O=C(NC(NC(=S)N1CCOCC1)C(Cl)(Cl)Cl)c1ccc(Cl)cc1 (stereo not given)	-14%
O=[N+]([O-])c1ccccc1N/N=C\c1ccccc1Cl	21%
CSc1nnc(-c2cccc(NC(=O)c3ccccc3)c2)n1C	?
O=C(COC(=O)c1cncc(Br)c1)Nc1ccc2c(c1)OCO2	-5%
c1ccc(-c2nnc(-c3ccccn3)c(-c3ccccn3)n2)nc1	-8%
CC(=O)Nc1ccc(NC(=O)C(C)OC(=O)c2cccc(S(=O)(=O)N3CCCCCC3)c2)cc1 (stereo not given)	-6%
Cc1nc(-c2ccccc2)cn(O)c1=O	-5%
Cc1ccc(-n2c3c(c(=O)[nH]c2=O)C(C(F)(F)F)(C(F)(F)F)NC(=O)N3)cc1	7%
CCOC(=O)c1c(NC(=O)COC(=O)Cn2cnc3c2c(=O)n(C)c(=O)n3C)sc(C)c1CC	6%
Cc1cccc(NC(=S)N2CCC(N(C)CC3CCCO3)CC2)c1 (stereo not given)	-12%
O=S(=O)(Nc1ccncc1)c1cc(Cl)c(Cl)cc1Cl	8%
COc1ccc(CNC(=O)c2cc(-c3ccc(OC)c(OC)c3)on2)cc1	17%
COc1ccc(OC)c(C(c2nnnn2Cc2ccccc2)N2CCN(C)CC2)c1 (stereo not given)	2%
CCC1CCCCN1CCCNC(=O)c1ccc2c(c1)c(C)c(C)n2C (stereo not given)	7%
COCC1=Cc2cc3c(cc2C(C(C(=O)OC)C(=O)OC)N1C(=O)OC)OCO3 (stereo not given)	-11%
O=C(Oc1ccccc1)N1CCC2(CCCN(c3ccccc3)C2)CC1	?
CCOC(=O)c1scc(-c2ccccc2)c1S(=O)(=O)Nc1ccccc1F	1%
Cc1ccc(NC(=O)CNC(=O)c2ccc3c(c2)OCO3)nc1	9%
Cc1cccc(C(=O)OCC(=O)N2CCN(C(=O)c3ccco3)CC2)c1O	-2%
Cn1c(SCC(=O)NCc2ccco2)nnc1-c1cccs1	3%
COC(=O)c1ccc(/C=N/n2cnnc2)cc1	20%
O=C(O)c1cccc([N+](=O)[O-])c1C(=O)Nc1nc2ccccc2s1	-23%
CCOC(=O)CC(NC(=O)c1cc2cc(OC)ccc2oc1=O)c1ccc(OC)cc1 (stereo not given)	-16%
CCCC(=O)Nc1ccc2oc(-c3cccnc3)nc2c1	6%
O=C(c1ccco1)N1CCC(c2ccccc2)C1 (stereo not given)	-1%
Cc1ccc(C)c(CN2CCC(CNC(=O)C(CC(C)C)N3Cc4ccccc4C3=O)CC2)c1 (stereo not given)	6%
Cc1c(Cl)cccc1NC(=O)CNc1ccccc1F	-9%
Cc1cccc(C(=O)Nc2c(-c3ccccc3)nc3cc(C)ccn23)c1	6%
CC(C)=CCN1CCN(Cc2ccc(Oc3ncccn3)cc2)CC1CCO (stereo not given)	16%
CCOc1ccccc1C(=O)N1c2ccccc2Sc2ccccc21	19%
COc1ccc(CNC(=O)Cn2c(=O)n3nc(-c4ccc(OC)cc4)nc3c3ccccc32)cc1	27%
O=C(NCCCN1CCCC1=O)c1ccccc1NS(=O)(=O)c1ccc(Br)cc1	-4%
Cc1ccc(Nc2nc(CSc3nnc(-c4cccs4)o3)cs2)cc1	11%
CN(C)c1ncc2nc(-c3ccc(F)cc3)c(=O)n(-c3ccccc3)c2n1	4%
CCc1ccc(OC(=O)CN2C(=O)c3ccccc3C2=O)cc1	-24%
Cc1ccc2c(CC(=O)NCc3ccco3)coc2c1C	-16%
Cc1cc(-c2ccccc2)c(C#N)c(N)n1	1%
COc1ccccc1NC(=O)Cc1noc(CSc2n[nH]c(N)n2)n1	5%
O=C(CCC(=O)N1CCOc2ccccc21)NCCCN1CCCCC1	11%
Cn1c(=O)c2c(SCC(=O)NCc3ccco3)nc(CC(C)(C)C)nc2n(C)c1=O	-10%
COc1cccc(-c2ccnc3[nH]n(-c4ccccc4)c(=O)c23)c1	-1%&-6%

A portion of the results above, for reference:
SMILES	VDR inhibitor
Cc1ccc(C)c(CN2CCC(CNC(=O)C(CC(C)C)N3Cc4ccccc4C3=O)CC2)c1 (stereo not given)	6%
Cc1c(Cl)cccc1NC(=O)CNc1ccccc1F	-9%
Cc1cccc(C(=O)Nc2c(-c3ccccc3)nc3cc(C)ccn23)c1	6%
CC(C)=CCN1CCN(Cc2ccc(Oc3ncccn3)cc2)CC1CCO (stereo not given)	16%
CCOc1ccccc1C(=O)N1c2ccccc2Sc2ccccc21	19%
COc1ccc(CNC(=O)Cn2c(=O)n3nc(-c4ccc(OC)cc4)nc3c3ccccc32)cc1	27%
O=C(NCCCN1CCCC1=O)c1ccccc1NS(=O)(=O)c1ccc(Br)cc1	-4%
Cc1ccc(Nc2nc(CSc3nnc(-c4cccs4)o3)cs2)cc1	11%
CN(C)c1ncc2nc(-c3ccc(F)cc3)c(=O)n(-c3ccccc3)c2n1	4%
CCc1ccc(OC(=O)CN2C(=O)c3ccccc3C2=O)cc1	-24%
Cc1ccc2c(CC(=O)NCc3ccco3)coc2c1C	-16%
Cc1cc(-c2ccccc2)c(C#N)c(N)n1	1%
COc1ccccc1NC(=O)Cc1noc(CSc2n[nH]c(N)n2)n1	5%
O=C(CCC(=O)N1CCOc2ccccc21)NCCCN1CCCCC1	11%
Cn1c(=O)c2c(SCC(=O)NCc3ccco3)nc(CC(C)(C)C)nc2n(C)c1=O	-10%
COc1cccc(-c2ccnc3[nH]n(-c4ccccc4)c(=O)c23)c1	-1%&-6%

Continuation:
SMILES	VDR inhibitor
CCN(CC)S(=O)(=O)c1cccc(-c2cn3cccnc3n2)c1	-5%
COc1ccc(/C=C/C(=O)OCC(=O)NC2CCCC(C)C2C)cc1S(=O)(=O)N1CCOCC1 (stereo not given)	1%
COc1ccc(OC)c(/C=N\Nc2nccs2)c1	3%
Cc1cc(-n2cccn2)ccc1CN1CCN(CC(C)C)C(CCO)C1 (stereo not given)	15%
N#CCCN1CCN(C(=S)c2ccc(-c3cccc(Cl)c3)o2)CC1	6%
CCOC(=O)N1CCC(=NNC(=O)COc2ccc(OC)cc2)CC1	-5%
CCN(CC)c1ccc(S(=O)(=O)N(CC)CC)cc1NC(=O)c1cccnc1	-25%
COc1cc(=O)n2c(-c3ccccc3)csc2n1	-1%
CCCCNC(=O)C1c2ccccc2Oc2ccccc21	9%
COC(=O)c1nnn(-c2ccc(Cl)cc2)c1C(=O)OC	?
CNC(=O)c1sc(NCc2ccccc2OC)nc1C	-29%
CCCNC(=O)NC(=O)COC(=O)c1cccc(NS(=O)(=O)c2ccc(F)c(F)c2)c1	7%
Cc1cc(OC(C)C(=O)NCCCN2CCOCC2)ccc1Cl (stereo not given)	16%
O=C(OCn1nnc2ccccc2c1=O)C1CCCCC1	-14%
CC1(C)Oc2ccc(NC(=O)c3ccco3)cc2O1	4%
CCc1ccccc1N(CC(=O)NCCSCc1ccco1)S(C)(=O)=O	2%
O=c1c2cccnc2n(Cc2ccc(Cl)cc2)c(=O)n1Cc1ccc(F)cc1	-8%
Cc1cc2c(cc1C)NC(c1c(C)n(C)n(-c3ccccc3)c1=O)C1=C(CC(C)(C)CC1=O)N2 (stereo not given)	-22%
Cc1ccc(CNC(=O)C2CCN(S(=O)(=O)c3cccnc3)CC2)cc1	-1%
CCN(c1ccccc1)c1nnc(NC(=O)Nc2ccccc2F)s1	9%

Source: PubChem BioAssay
